NPYLR7 ag: activates Aedes aegypti NPYLR7 receptor; HEK293T NPYLR7/Galpha15, GCaMP6s calcium fluorescence; activation, % at 10 µM; hit rate 0.15% among 270,000; AID 1259423; in the data active means activation above about 40%;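 further: 0% = vehicle and 100% = reference agonist at the receptor; some compounds past the cut are filed as inactive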
NPYLR7 ag max-min: recorded beside NPYLR7 ag, whose call it bears; activation, %; measured here: Max-Min RFU normalised activation; some inactives read as strong as hits;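 span of the calcium signal over five minutes; 0% = vehicle and 100% = native peptide agonist; compound fluorescence can raise it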
Starred values were filed as active, the others as inactive; & = joins results of further samples. Only part of the results is shown (hit frequency here may not be typical).

SMILES	NPYLR7 ag	NPYLR7 ag max-min
CCOC(=O)N1CCC(N2C(=O)CCC2CCNCc2ccc(C(=O)OC)cc2)CC1 (stereo not given)	23	0
COc1ccc(-c2cc(NCCc3ccc(Cl)cc3)n3ncnc3n2)cc1	7	3
COc1ccc(-c2nc3ccccn3c2NC(=O)CC(C)(C)C)cc1	-3	3
COCCN(Cc1ccncc1Cl)C(C)(C)CO	10	7
O=C(C1C[C@H]1c1ccccc1)N1CCN(CC(OCc2ccc(C(F)(F)F)cc2)c2ccc(Cl)cc2)CC1 (stereo not given in full)	6	2
CNc1nc(C)c(C(=O)N(C)C(C)Cc2ncccc2C)s1 (stereo not given)	-7	-12
Cc1cc(C)cc(CN2CCC(Cc3ccc(-n4cccc4)cc3)CC2)c1	1	1
Nc1ccc(-c2nc3ccc(N)cc3s2)cc1	-3	-5
C#CCn1c(COc2ccccc2OC)nc2ccccc21	6	3
S=c1[nH]nc(COc2ccccc2)o1	4	2
O=C(CN1CCc2sccc2C1c1ccc(Cl)cc1)N1CCN(C(=O)c2ccco2)CC1 (stereo not given)	6	-3
Cc1ccc(F)c(C(=O)N(Cc2cccc(Oc3ccc(Cl)cc3)c2)Cc2ccco2)c1Cl	-5	-11
O=S(=O)(NCC(c1ccco1)N1CCc2ccccc2C1)c1cccs1 (stereo not given)	-6	-8
Cc1c(NCc2cccnc2)cccc1C(=O)N[C@@H]1CNC[C@H]1O	3	2
CN(CCN1CCOCC1)C(=O)c1cc(COc2ccc(F)cc2Cl)on1	4	2
CCc1ccccc1NC(=O)c1cccc(NC(=O)COC(C)C)c1	11	0
O=S1(=O)c2cccc3cccc(c23)N1Cc1cc(Cl)ccc1OC(F)F	3	0
Cc1c(C(C)NC(=O)c2csc(-c3cccs3)n2)cnn1-c1ccccn1 (stereo not given)	2&2	0&1
CCOc1cc(C(=O)NCCOC)cc(Cl)c1O	5	1
CC1(C)C(NC(=O)C2CC2c2ccc(F)cc2)C2CCOC21 (stereo not given)	4	0
O=S(=O)(c1cccs1)N1CCN(c2ncnc3c2nnn3-c2ccccc2)CC1	-7	-7
CCC(C#N)NC(=O)CCNC(=O)OCC(F)(F)F (stereo not given)	1	8
O=c1c(Cl)c(NCC2CCCO2)cnn1-c1cccc(C(F)(F)F)c1 (stereo not given)	15	12
CC(C)CNC(CC(=O)Nc1ccc2ccccc2c1)C(=O)O (stereo not given)	5	2

Nothing new here: entries from further up.
SMILES	NPYLR7 ag	NPYLR7 ag max-min
CCOC(=O)N1CCC(N2C(=O)CCC2CCNCc2ccc(C(=O)OC)cc2)CC1 (stereo not given)	23	0
COc1ccc(-c2cc(NCCc3ccc(Cl)cc3)n3ncnc3n2)cc1	7	3
COc1ccc(-c2nc3ccccn3c2NC(=O)CC(C)(C)C)cc1	-3	3
COCCN(Cc1ccncc1Cl)C(C)(C)CO	10	7

Next section:
SMILES	NPYLR7 ag	NPYLR7 ag max-min
CCCS(=O)(=O)NC(=O)C1(C)CCN1C(=O)C1(c2ccc(Cl)cc2)CC1 (stereo not given)	1	0
Cc1[nH]c2c(c1C(=O)N1CCOC(C(F)(F)F)C1)C(=O)CCC2 (stereo not given)	22	7
Cc1cc(OCC2c3ccsc3CCN2C(=O)CN(Cc2ccco2)S(=O)(=O)c2ccc(Cl)cc2)ccc1Cl (stereo not given)	17	15
CCCCNC(=O)c1cc(N2CCN(Cc3ccccc3)CC2)nc2ccccc12	4	0
Clc1ccc2nc(-n3nc4ccccc4n3)nc(-c3ccccc3)c2c1	-7&7	-11&7
ClCC(CNCc1nc(C2CC2)no1)n1cccn1 (stereo not given)	5	2
CC(C)CNc1nccc2[nH]c(-c3ccco3)nc12	-7	-13
COc1ccc(NC(=O)CC(=O)N2CCC(Oc3ccc(C)cc3)CC2)c(OC)c1	7	2
O=S(=O)(NCCCn1ccnc1)c1cc(Cl)ccc1Cl	11	3
O=C(CCC1CCCC1)Nn1cnc2ccc(Cl)cc2c1=O	10&0	8&0
O=C1NC(=O)C2C1ON(c1ccccc1)C2c1cccs1 (stereo not given)	-3	-4
Cc1ccc2c(c1)sc(=NC(=O)c1cc(Cl)sc1Cl)n2C	0	3
Cn1c(=O)[nH]c(=O)c2c1nc(N1CCN(Cc3ccccc3Cl)CC1)n2Cc1ccccc1	0	11
CC(C)CS(=O)(=O)CC(=O)NCc1ccc(Br)cc1	7	5
CC(C)N(Cc1ccc(-c2ccc(F)cc2)s1)C(=O)c1ccc(=O)n(C)n1	7	2
CN(Cc1nc2ccccc2n1CCCOc1ccc(Cl)cc1)C(=O)c1ccco1	-8	-9
Cc1ccc(S(C)(=O)=O)cc1NS(=O)(=O)c1ccc(Br)cc1Cl	2	1
Cc1ccc(C(C)C)c(Oc2ccc(-c3nc(N)nc(N)n3)cc2)c1	-4	-6
Cc1ccc2nc(C)c(C(=O)N(C)Cc3nc(CC(C)C)no3)cc2c1	22	10
Cc1ccc(NCc2ccc(C(=O)N(C)CC3CCCCO3)cc2)cc1 (stereo not given)	14	9
COCCNc1cccc2c1C(=O)c1ccccc1C2=O	-6	-9
CN1CCc2c(sc(NC(=O)c3ccc(F)cc3)c2-c2nc3ccccc3s2)C1	0	-1
O=C1C(=O)N(Cc2ccccc2)c2c(Br)cccc21	8	6
CC1CCCCN1C(=O)c1cc(-c2ccc3c(c2)OCO3)nc2ccccc12 (stereo not given)	1	1

7 compounds from above, arranged by molecular weight, falling.
SMILES	NPYLR7 ag	NPYLR7 ag max-min
Cn1c(=O)[nH]c(=O)c2c1nc(N1CCN(Cc3ccccc3Cl)CC1)n2Cc1ccccc1	0	11
Cc1ccc(S(C)(=O)=O)cc1NS(=O)(=O)c1ccc(Br)cc1Cl	2	1
CN1CCc2c(sc(NC(=O)c3ccc(F)cc3)c2-c2nc3ccccc3s2)C1	0	-1
CC(C)N(Cc1ccc(-c2ccc(F)cc2)s1)C(=O)c1ccc(=O)n(C)n1	7	2
Cc1ccc(NCc2ccc(C(=O)N(C)CC3CCCCO3)cc2)cc1 (stereo not given)	14	9
Cc1ccc(C(C)C)c(Oc2ccc(-c3nc(N)nc(N)n3)cc2)c1	-4	-6
O=C1C(=O)N(Cc2ccccc2)c2c(Br)cccc21	8	6

(list continues)
SMILES	NPYLR7 ag	NPYLR7 ag max-min
Cc1ccc(CN(CCc2ccccc2)C(=O)CN(Cc2ccco2)C(=O)c2ccco2)o1	12	14
CC(C)NC(=O)C(C)S(=O)(=O)Cc1ccccc1F (stereo not given)	-4	-4
CCOC(=O)c1nn(-c2ccccc2)c(=O)cc1OCC(=O)Nc1ccc(C)c(Cl)c1	9	3
COc1ccc(OCC(=O)N=Nc2c(O)[nH]c3c(C)cc(C)cc23)c(Br)c1	29	7
CCCNC(=O)CCCn1nc(CC)n2c(cc3sc(CC)cc32)c1=O	17	16
Cc1ccc2oc(-c3cc(NC(=O)c4ccc(C)c([N+](=O)[O-])c4)ccc3O)nc2c1	-3	-8
COCCN(C(=O)c1nn(-c2ccc(C)cc2C)nc1C)C(C)COC (stereo not given)	1	-3
CN=c1scc(C)n1N=Cc1ccc(O)cc1	2	2
CCOC(=O)N1CCN(Cc2ccc3c(c2)CN(C(=O)C2CC(=O)N(CCOC)C2)CCO3)CC1 (stereo not given)	0	-1
COc1ccc(OC)c(CN(Cc2ccc(F)cc2)Cc2nc(C(=O)NCc3ccc(F)cc3)co2)c1	11	33
CN(Cc1ccnc2ccccc12)C(=O)c1cc(-c2ccccc2)n[nH]1	1	-2
Cc1ccc(C(=O)NC2CCCCC2)cc1S(=O)(=O)N1CCOCC1	-4&1	-5&0
Cc1noc(C)c1S(=O)(=O)NC1CC2CCC1(C)C2(C)C (stereo not given)	-3	-3
Cc1ccc2[nH]cc(C3CCN(C(=O)c4cccnc4Sc4ccc(Cl)cc4)CC3)c2c1	23	24
Cc1ccc(-n2cc(CN(C)Cc3cccnc3)c(-c3ccc(F)cc3)n2)cc1	5	1
COc1cccc(N=c2scc(-c3ccccc3)n2-c2cccc(Oc3ccccc3)c2)c1	-4	-10
OCCNc1cc(-c2cccc(C(F)(F)F)c2)ncn1	9	6
COC(=O)c1ccc(COC(CN2CCN(C(=O)c3cccn3C)CC2)c2ccc(Cl)cc2)cc1 (stereo not given)	3	-2
COCCNc1nc2cc(-c3cccc(Cl)c3)sc2c(=O)n1C	4	0
CCC1CCCCN1CCCNC(=O)c1c(O)nc2cc(C)ccn2c1=O (stereo not given)	0	28
CN(Cc1ccccc1O)C(=O)c1cc(Cl)c2c(c1)OCCCO2	0	1
O=C1OC2(C(=O)c3ccccc3C2=O)C(=C(O)c2ccc(Cl)cc2)C1=O	11	3
Nc1ccccc1C1SCC(=O)N1c1ccccc1F (stereo not given)	3	6
Cc1cc(C)c(-c2c(-c3ccccc3)ncn2CCOCCO)c(C)c1	2	10
CC12CCC(C(=O)O)(C(Br)C1=O)C2(C)C (stereo not given)	14	5
NC(=O)CSc1nc2c([nH]c3ccccc32)c(=O)n1-c1cccc(Cl)c1	1	23
O=C(NCCC1=CCCCC1)Nc1cccc(-c2nc(C3CC3)no2)c1	9	3
Cc1cc(C)n(Cc2ccc(C(=O)N3[C@@H]4CC[C@H]3CN(C)C(=O)C4)cc2)n1	-1	-4
COCCCN(Cc1ccc([N+](=O)[O-])cc1)Cc1cccn1Cc1cccc(C)c1	28	20
Cc1c(C(=O)N2CCN(CC(=O)Nc3cccc(F)c3)CC2)sc2ccccc12	9	0
COc1cc(NC(=O)C(F)(F)c2ccccc2)ccc1NS(C)(=O)=O	6	6
O=C1C(SCCO)=C(SCCO)C(=O)c2ccccc21	-5	-19
O=C(CCN(CCCN1CCOCC1)c1nc(C2CC2)nc2ccccc12)NCc1cccc(C(F)(F)F)c1	10	4
O=S(=O)(NCc1ccc(CN2CCOCC2)cc1)c1ccccc1Br	1	-2
COc1c2ccoc2nc2c(OC)c(O)ccc12	3	3
CC(C)Cn1c(N)c(C(=O)CSc2nncs2)c(=O)n(C)c1=O	4	12
COc1cc(NC(=O)CSc2nnc(C)n2C)cc(OC)c1	2	0
CCc1nc2ccc(C(=O)NCCCn3ccnc3)cn2c1N(C)Cc1ccc(NC(C)=O)cc1	5	-9
O=C(CN1CCC(N2CCCC(CO)C2)CC1)Nc1ccc(Cl)cc1F (stereo not given)	-3	-6
CC(C)C1N=C2c3ccccc3N=C(SCc3cc(=O)n4cc(Br)ccc4n3)N2C1=O (stereo not given)	26	14
CCN1CC(C)Oc2ccncc2S1(=O)=O (stereo not given)	9	16
c1ccc(OCCn2c(SCc3cccc4ccccc34)nc3ccccc32)cc1	-2	-1
CN(CCOc1ccccc1Cl)Cc1nnsc1Cl	12	10
Cc1ccc(-n2c(CNC(=O)Nc3ccccc3C)nnc2SCc2ccccc2C)cc1	13	12
O=C(COc1ccccc1F)N1c2ccccc2NC(=O)C12CCCC2	-22	-21
O=C(NC1CCN(c2ccccc2C(=O)N2CCOCC2)CC1)c1cccs1	21	19
Cc1nonc1CN(C)C(=O)CC1C(=O)NCCN1CCC(C)C (stereo not given)	14	2
CSc1nccc(-c2ccc(O)cc2)n1	13	12
O=C(O)c1coc(CN(Cc2ccccc2)Cc2ccc(C(F)(F)F)cc2)n1	9	15
COc1cc(-c2nccn2CCCc2ccccn2)cc(OC)c1O	4	2
COc1ccc(-n2nnnc2CNC(=O)CCc2ccccc2)cc1	-4	-3
CCOC(=O)C1(C/C=C/c2ccccc2)CCCN(C(=O)C2=C(C)OCCO2)C1 (stereo not given)	22	18
CC(C)CCSc1nc2ncn(C)c2c(=O)[nH]1	2	2
Cn1c(=O)[nH]c(=O)c2c1nc(N1CCN(Cc3ccccc3)CC1)n2Cc1ccccc1	17	13
COc1cccc(Cc2nsc(N3CCC(CNC(=O)c4cccc(Br)c4)CC3)n2)c1	36	34
Cn1c(=O)c(C(=O)Nc2ccc(Br)cc2)c(O)c2ccccc21	-3	-9
COc1ccccc1NC(=O)c1c(N=Cc2c(O)ccc3ccccc23)cnn1C	1	-6
COc1ccc(NC(=O)CCC2CCN(Cc3ccc(SC)cc3)CC2)c(OC)c1	8	3
O=C(CCCCCN1C(=O)c2cccc3cccc(c23)C1=O)NO	0	-8
COc1cc(Br)cc(C=Nc2ncn[nH]2)c1O	3	-9

Next section
SMILES	NPYLR7 ag	NPYLR7 ag max-min
CCOc1ccc(-n2c(C)cn3c4c(=O)n(CCN5CCOCC5)c(=O)n(C)c4nc23)cc1	1	-1
CCNCC1CC(c2ccc(OC)cc2)=NO1 (stereo not given)	0	2
COc1ccc(-n2nc3c(c2NC(=O)c2cccc(OC)c2OC)CS(=O)(=O)C3)cc1	-4	-5
CCCCNC(=O)N(CCCOC)Cc1c(C)nn(-c2cccc(F)c2)c1N1CCN(C)CC1	1	6
COc1ccc(C2=NN(C(=O)CN3CCCCC3C)C(c3ccccc3)C2)c(OC)c1 (stereo not given)	-1	2
COc1cc(-c2ccnc(N3CCN(C(=O)COc4c(F)c(F)c(F)c(F)c4F)CC3)n2)cc(OC)c1OC	14	8
CCCCN(CC(=O)N1c2ccccc2-n2cccc2C1c1ccc(Cl)cc1)C(=O)Nc1ccc(OCC)cc1 (stereo not given)	15	21
CN(Cc1n[nH]c2c1CCCCC2)C(=O)c1cc(-c2cccn2C)n[nH]1	-6	-9
CN(Cc1ccccc1)C1(C(=O)NCCN2CCOCC2)Cc2ccccc2C1	16	4
CCCCCn1c(C)cc(=O)[nH]c1=O	-6	-11
Cc1ncc(C(=O)Nc2ccc(OC(F)F)c(F)c2)[nH]1	-8	-8
CC(C)NC(=O)c1coc(CN(Cc2ccc(F)cc2)Cc2cccs2)n1	-1	6
CCc1nc(CNC(=O)C(CC)n2cc(C(C)=O)c3ccccc32)cs1 (stereo not given)	17	7
COCCN(CCOC)C(=S)NCc1ccc(F)cc1	-9	-15
